RanGTP-Imp inh = inhibitors of RanGTP-importin-beta interaction, primary screen, biochemical, FRET, CFP-Ran, YFP-importin-beta, homogeneous. Ran GTPase (GTP-bound) - importin-beta complex. actives 1.1% (n = 300,000). inhibition, % (no concentration beside the values). cell-free CFP-Ran/YFP-importin-beta FRET ratio;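 active = most replicates above 15%; inconclusive = exactly half above 15%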;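 note: 0% = DMSO wells and 100% = Ran loaded with GDP instead of GTP; wells of about 40 µL received 100 nL stock; the first replicate is given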
Beta apoptosis = inhibitors of cytokine-induced beta cell apoptosis, primary screen, luminescence; INS-1E cytokine-induced death, ATP luminescence, 48 h; percent of positive-control rescue, neutral wells zero; protection from apoptosis, % (no concentration beside the values); actives 0.8% (n = 300,000); AID 435005, 2010;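 active = all replicates at 75% or more, or half of them and the mean; inconclusive = half reach 75% but not the mean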;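 note: 0% = cytokine-treated negative control wells and 100% = positive control rescue; higher means more ATP so stronger rescue from cytokine killing; wells of about 40 µL received 100 nL stock; the first replicate is given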
T cruzi inh = inhibitors of intracellular T. cruzi growth, primary screen, luminescence, NIH3T3 host cells | T. cruzi beta-gal in NIH3T3, 90 h | inhibition, % (concentration not given with the values) | actives 1.4% (n = 300,000) | AID 1885, 2009;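 active = mean inhibition across valid replicates above about 55%, limit read from the data; inconclusive = mean below that limit but half or more replicates reach it; inactive = mean below it, under half of replicates reach it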;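 note: signal also drops with host cell toxicity which is not excluded here; 0% = plate median of DMSO wells and 100% = zero luminescence signal; higher percent means less beta-gal luminescence so fewer parasites; stock transfer was 50 nL into about 50 µL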
Calb FLC = C. albicans growth inhibition with fluconazole, primary screen, CaCi-2 strain, Alamar Blue fluorescence | C. albicans CaCi-2 (fluconazole-resistant clinical isolate) + fluconazole, 48 h | actives 0.57% (n = 300,000) | growth inhibition, % (test concentration not listed);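 active = most replicates above 75%; inconclusive = exactly half above 75%; inactive = most below 75%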;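 note: all wells also contain fluconazole at 8 µg/ml as a sub-toxic cotreatment; 0% = median of DMSO wells and 100% = median of geldanamycin control wells; wells of about 8 µL received 7.5 nL stock; the first replicate is given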
Vif TR-FRET = inhibitors of Vif binding to APOBEC3G peptide, primary screen, biochemical, TR-FRET, GST-Vif 1-94, biotin-A3G peptide, dose response retest (AID 1117319) | Virion infectivity factor (Human immunodeficiency virus type 1 group M subtype B (isolate … | TR-FRET GST-Vif / biotin-A3G peptide binding; higher % means a stronger effect; test concentration not given here; strong numbers were not always called active | one-dose inhibition, %; IC50 in µM for titrated hits | actives 0.57% (n = 260,000);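 active = above the screen mean plus three standard deviations and confirmed in dose response; inconclusive = results disagree or hit not tested in dose response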;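 note: Vif residues 1-94 fused to GST binding biotinylated APOBEC3G peptide 110-148; 0% = full assay without inhibitor and 100% = GST in place of GST-Vif; retest series ran down from 100 µM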
LANA-H2B inh = blockers of LANA interaction with H2A/H2B – biochemical, FP readout, HTS, primary screen. Protein LANA1 (Human herpesvirus 8 type P (isolate GK18)), Q9QR71. cell-free LANA-H2A/H2B peptide, fluorescence polarization. inhibition, % (test concentration not listed). actives 0.6% (n = 320,000); in the data active = inhibition mostly above about 10%, no sharp cut-off; inactive = mostly below about 6.7%;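 note: stock transfer was 7.5 nL into about 10 µL; 0% = median of vehicle wells and 100% = median of positive control wells; one replicate is shown; the record names a cut of 25% in any replicate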
Target sequence (Q9QR71 whole entry, looked up): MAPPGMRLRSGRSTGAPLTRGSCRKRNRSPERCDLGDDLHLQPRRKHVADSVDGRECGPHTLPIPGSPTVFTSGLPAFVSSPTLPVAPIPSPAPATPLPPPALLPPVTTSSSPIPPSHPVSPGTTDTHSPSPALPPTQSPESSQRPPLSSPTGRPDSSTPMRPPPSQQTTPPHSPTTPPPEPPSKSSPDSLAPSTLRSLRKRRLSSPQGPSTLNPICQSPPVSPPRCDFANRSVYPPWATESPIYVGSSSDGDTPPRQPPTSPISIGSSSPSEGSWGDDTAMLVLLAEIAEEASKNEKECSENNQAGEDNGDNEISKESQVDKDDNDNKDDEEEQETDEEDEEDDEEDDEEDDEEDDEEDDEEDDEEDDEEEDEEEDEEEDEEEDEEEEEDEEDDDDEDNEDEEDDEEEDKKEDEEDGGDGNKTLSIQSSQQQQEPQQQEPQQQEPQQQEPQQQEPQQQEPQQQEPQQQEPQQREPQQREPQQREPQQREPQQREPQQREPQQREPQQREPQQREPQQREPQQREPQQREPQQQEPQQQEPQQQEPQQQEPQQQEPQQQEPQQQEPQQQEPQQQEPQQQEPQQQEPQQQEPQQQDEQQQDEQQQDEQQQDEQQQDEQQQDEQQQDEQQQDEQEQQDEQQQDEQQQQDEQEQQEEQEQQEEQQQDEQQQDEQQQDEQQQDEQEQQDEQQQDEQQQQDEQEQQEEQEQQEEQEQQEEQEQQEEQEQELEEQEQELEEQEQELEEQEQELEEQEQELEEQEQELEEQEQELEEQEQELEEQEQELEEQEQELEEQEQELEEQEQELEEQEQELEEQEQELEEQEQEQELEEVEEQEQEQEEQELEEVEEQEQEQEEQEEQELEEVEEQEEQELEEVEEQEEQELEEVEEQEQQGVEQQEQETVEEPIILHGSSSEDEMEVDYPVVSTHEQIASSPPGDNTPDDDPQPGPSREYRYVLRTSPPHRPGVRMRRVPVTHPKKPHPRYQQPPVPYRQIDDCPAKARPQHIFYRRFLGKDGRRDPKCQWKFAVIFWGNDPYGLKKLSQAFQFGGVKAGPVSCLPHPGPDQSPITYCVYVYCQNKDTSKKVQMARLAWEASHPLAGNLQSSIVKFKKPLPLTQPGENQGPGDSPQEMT
MLL AF4-AF9 inh = inhibitors of AF4 peptide binding to AF9, primary screen, biochemical, AlphaScreen, biotin-AF4 peptide, FLAG-AF9, single point. inhibition, % at 10 µM. AID 651704, 2012. actives 0.47% (n = 350,000);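 active = every replicate reaching a set inhibition limit, whatever the replicate mean, cut at about 25% in these data; inconclusive = mean inhibition reaches that limit but some replicates miss it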;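 note: 0% = plate neutral control median and 100% = total signal loss; the record names both 10 and 1 µM as test concentration; the first replicate is given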
Bfl-1 A1 inh = caspase 3/7 activation in MEF A1-2A-BIM cells, primary screen, A1 inhibitor project, cell-based, luminescence, HTS. Caspase-Glo 3/7 luminescence, 3 h; percent of clofoctol response, vehicle zero. caspase activation, % (no concentration beside the values). actives 0.066% (n = 330,000). AID 2462, 2010;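 active = over half of replicate activation scores above 10%, or exactly half above 10 with the replicate mean above 10; inconclusive = replicate mean below 10 yet half the replicates above 10; inactive = over half of replicates below 10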;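 note: wells of about 30 µL received 50 nL stock; many hits fall short of the cut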
Numbers without * were called inactive; u = inconclusive; x = not tested or not shown.

| structure | RanGTP-Imp inh | Beta apoptosis | T cruzi inh | Calb FLC | Vif TR-FRET | LANA-H2B inh | MLL AF4-AF9 inh | Bfl-1 A1 inh |
| --- | --- | --- | --- | --- | --- | --- | --- | --- |
| CC1CN(C(=O)CCC(=O)NCc2ccc(Cl)cc2)c2ccccc2O1 (stereo not drawn) | -0.4 | -3 | -7 | -5 | x | 0.2 | -6.5 | 0.3 |
| CC(=O)N1CCN(C(=O)CCc2nc3ccccc3c(=O)[nH]2)CC1 | 1.4 | -1 | -18 | -25 | 4% | -1.5 | -11 | 0.3 |
| CN(CC(=O)Nc1cccc(F)c1)C(=O)c1cc2c(s1)CCCCC2 | 1.1 | 4 | 2 | -3 | -9% | -2.8 | x | -0.5 |
| COc1ccc(NC(=O)C(Sc2nnc(-c3ccncc3)n2-c2ccccc2C)c2ccccc2)cc1Cl (stereo not drawn) | -0.8 | -4 | 49 | 32 | x | -7.4 | -18 | 0.6 |
| Cc1ccc(Cl)cc1C1=CC(=O)C[C@H](c2ccc(F)cc2)C1 | x | -1 | x | x | x | 3.3 | -0.8 | -0.1 |
| Cc1cc(-c2ccccc2)nc(Cl)c1C#N | -0.3 | -3 | -5 | 8 | 13% | -3.4 | -23 | 0.6 |
| CC1(C)NC(=O)N(CCSc2ccc(Cl)cc2)C1=O | -0.9 | -4 | 11 | -30 | -1% | 0.5 | x | 1.4 |
| COc1ccc(NN=Nc2ccc([N+](=O)[O-])cc2)cc1 | 1.7 | 0 | 21 | -46 | x | -2.9 | -11 | -0.8 |
| Cn1c(O)c(C=NCC2CCNCC2)c(=O)n(C)c1=O | 0.8 | x | -9 | -12 | -4% | x | x | x |
| COc1ccc2nc(NC(=O)CN3C(=O)NC4(CCCC4)C3=O)sc2c1 | 1.2 | -3 | 0 | 5 | -2% | -0.6 | -23 | 0.3 |
| CCOc1c(OC)cccc1C1CC(=O)Nc2cc3c(cc21)OCCO3 (stereo not drawn) | 0.4 | x | -13 | -2 | 65% | 1.7 | 6.3 | 0.7 |
| CC1=NN(c2ccccc2)C(=O)/C1=C\c1cn(CCC#N)nc1-c1ccc(Cl)cc1 | -3.5 | -7 | -19 | -1 | x | -3.5 | 14 | 0.4 |
| COc1ccc(CN(Cc2ccncc2)C(=O)CCC(=O)O)cc1 | 0.5 | -16 | -6 | 0 | -3% | 2.0 | x | 0.2 |
| O=C1CCCN1CN(C(=O)c1ccc2c(c1)OCO2)c1ccc(F)cc1 | -2.2 | -10 | -15 | -6 | 3% | -1.8 | x | 1.2 |
| CCOCCCNC(=O)C1c2ccccc2C(=O)N2CCc3ccccc3C12 (stereo not drawn) | 4.2 | -6 | -8 | -2 | u | 0.9 | x | 0.2 |
| COc1ccc(CNC(=O)[C@H](C)N2C(=O)N3CCc4c([nH]c5ccc(OC)cc45)[C@@]3(C)C2=O)cc1 | 7.8 | x | -5 | -7 | x | -4.4 | -1.0 | 0.5 |
| CCOCCCNC(=O)C(c1ccc(C)cc1)N(Cc1cccs1)C(=O)CNC(C)=O (stereo not drawn) | 0.5 | 1 | 1 | u | 9% | 0.2 | -4.3 | 0.5 |
| CC(C)N=C(NS(=O)(=O)c1cccs1)c1ccccc1 | 0.8 | -9 | -16 | 12 | 12% | 3.1 | -0.1 | -1.7 |
| O=C(CN1C(=O)NC2(CCCCC2)C1=O)N(Cc1ccco1)Cc1cccs1 | 1.7 | 6 | 6 | -2 | 3% | -0.6 | -0.3 | -0.4 |
| CC(OC(=O)c1cccc(S(=O)(=O)N2CCN(C)CC2)c1)C(=O)Nc1ccc(C(N)=O)cc1 (stereo not drawn) | x | 2 | x | x | 3% | 10 | -0.4 | 0.5 |
| CCSc1nnc(NC(=O)C(CC)(C(F)(F)F)C(F)(F)F)s1 | 6.8 | 31 | 15 | 10 | 5% | 4.9 | x | 0.1 |
| Cc1ccc(C)c(Cn2c(C(C)O)nc3ccccc32)c1 (stereo not drawn) | u | -3 | -6 | 14 | -5% | -13 | x | 0.7 |
| CCOC(=O)C1=C(COC(=O)CNC(=O)c2ccc(Cl)cc2Cl)NC(=O)NC1C (stereo not drawn) | -0.6 | -5 | -9 | -3 | 3% | 6.2 | 5.4 | u |
| CCC(C)NCCOCCOc1ccc(Cl)cc1Br (stereo not drawn) | -5.3 | -5 | 72* | -4 | x | 0.5 | 0.3 | -1.1 |
| COc1ccc(Cc2nnn(CC(=O)O)n2)cc1 | 3.4 | x | -20 | 2 | 0% | -1.9 | x | 1.5 |
| CC(=O)Oc1ccc2c(=O)c(-c3nc4ccccc4s3)coc2c1 | -1.2 | -1 | -10 | 89* | u | 0.6 | -1.0 | -8.5 |
| NS(=O)(=O)c1ccc(S(=O)(=O)N2CCN(C3CCCC3)CC2)cc1 | 7.8 | 0 | -7 | 8 | x | -8.4 | -1.2 | -0.4 |
| O=C(/C=C(/c1ccc(Cl)cc1)n1cncn1)c1ccccc1 | 1.4 | -2 | 47 | -16 | -7% | -5.8 | x | -0.6 |
| COc1ccc(Cl)cc1NC(=O)COC(=O)c1ccc(Cl)nc1 | x | -3 | x | x | -14% | -2.5 | -2.6 | -0.6 |
| CN(CC(=O)Nc1ccccc1C(F)(F)F)Cc1c(O)ccc2ccccc12 | 3.3 | 0 | -13 | -6 | 17% | -0.5 | 5.6 | -0.6 |
| O=C(NCCc1cccc(Cl)c1)c1ccc(OC2CCN(Cc3ccccn3)CC2)cc1 | 0.7 | x | 0 | -7 | x | x | 3.9 | x |
| Cc1ccc(NC(=O)C2CCN(S(=O)(=O)c3ccc4c(c3)NC(=O)C(C)S4)CC2)cc1C (stereo not drawn) | -2.6 | 47 | 18 | 25 | x | 0.8 | 1.1 | 0.2 |
| CCOc1cccc(Oc2ncccc2C(=O)/C(C#N)=C/N(C)C)c1 | -2.4 | -2 | -8 | -2 | -1% | -0.2 | x | 0.3 |
| Cc1ccc(OCc2n[nH]c(=S)n2-c2ccccc2)cc1C | 1.4 | 2 | 5 | 12 | -4% | 0.4 | -3.6 | 0.2 |
| O=C(Nc1ccc(/C=C/c2nc3ccccc3o2)cc1)c1c(F)cccc1F | 4.9 | 21 | 2 | -4 | u | 4.3 | x | -1.6 |
| O=C(O)CC/C(=C\c1cc([N+](=O)[O-])ccc1Cl)c1nc2ccccc2s1 | -14 | -2 | 2 | 47 | -1% | 5.7 | x | 0.7 |
| COC(=O)c1ccc(NC(=O)CSc2nn3c(=O)c(C)nnc3s2)cc1 | -3.7 | x | -12 | -1 | 10% | -8.1 | -2.1 | -0.1 |
| Cc1ccc(CN2CCC(CNC(=O)c3ccc(NC(=O)C4=CSCCO4)cc3)CC2)cc1 | 4.6 | -17 | -13 | 1 | x | 2.8 | 0.8 | 0.7 |
| Cc1ccccc1-c1noc(-c2ccccc2C(=O)O)n1 | -0.7 | -1 | 5 | 1 | -8% | -2.4 | -3.7 | -0.4 |
| S=c1[nH]c2cc3c(cc2[nH]1)OCCO3 | -1.6 | -7 | -4 | 10 | 0% | 2.1 | -0.8 | 0.1 |
| CC1(C)C(=O)OC(c2cc(Br)ccc2O)C(C)(C)C1=O (stereo not drawn) | -2.0 | -6 | 9 | -9 | x | 1.0 | x | -0.3 |
| CC(=O)Nc1ccc(N(C(=O)c2ccco2)C(C(=O)NC2CCCCC2)c2ccccc2)cc1 (stereo not drawn) | 5.4 | -8 | 8 | 1 | x | 10.0* | -0.6 | 0.6 |
| COc1ccccc1NC(=O)C1CCCN(c2cnccn2)C1 (stereo not drawn) | -9.7 | x | 13 | 2 | x | x | -8.2 | x |
| CCOc1ccccc1C(=O)NN1CCOCC1 | 2.8 | 1 | 6 | -14 | -6% | -0.6 | -9.6 | u |
| CC(=NCCCn1ccnc1)C1=C(O)c2ccccc2C1=O | -2.6 | -4 | -2 | 13 | 23% | -4.3 | x | 0.9 |
| O=C(NNc1nc(-c2ccc(F)cc2)cs1)c1ccccc1 | -1.5 | -3 | -15 | -6 | 28% | -3.2 | 8.6 | -0.4 |
| COc1ccc(C(=O)N2CCN(Cc3ccccc3)CC2)cc1[N+](=O)[O-] | 0.0 | -1 | 0 | 4 | x | 2.7 | -7.9 | 1.3 |
| CCn1c(=O)c2cc(C(=O)N3CCOCC3)sc2c2ccccc21 | 0.6 | 5 | 15 | -2 | 4% | 2.5 | -3.2 | -0.1 |
| COc1ccccc1C(c1nnnn1C1CCCC1)N1CCN2CCCC2C1 (stereo not drawn) | 8.1 | x | 8 | -2 | 24% | -2.9 | x | 1.2 |
| O=C(CSc1nnc(SCc2ccc(Cl)cc2)s1)c1ccc2c(c1)OCO2 | 2.4 | -4 | -4 | 1 | -16% | x | x | -1.0 |
| Cc1nn(CC(=O)NC2CCC(C)CC2)c(=O)c(C#N)c1C (stereo not drawn) | 3.4 | -5 | -10 | -6 | 5% | -1.4 | 14 | -0.2 |
| Cc1cc(-c2ccc3ccccc3c2)n2ncnc2n1 | 1.0 | 8 | 7 | 32 | 3% | 7.1 | -1.6 | 0.0 |
| COc1ccc(C(=O)OCC(=O)Nc2cccc(C(C)=O)c2)c(OC)c1OC | 0.1 | x | -16 | 5 | x | -1.7 | -0.9 | -0.2 |
| CC(C)(C)NC(=O)NC(=O)CN1CCCc2ccccc21 | x | 2 | x | 114* | 8% | 2.7 | 3.5 | 0.4 |
| O=C(CCc1nnc2ccc(NCc3ccco3)nn12)Nc1ccc(F)cc1 | 0.7 | x | -7 | 9 | x | -1.7 | -3.1 | 0.0 |
| Cc1cc(C(=O)NN=C(Cc2ccccc2)Cc2ccccc2)c(C)o1 | 0.6 | -2 | 9 | -31 | -5% | -1.6 | -1.2 | 0.3 |
| O=C(Nc1ccc(O)c2c(=O)cc(-c3cccc(Cl)c3)oc12)c1ccc(F)cc1 | -4.0 | 1 | 10 | -7 | x | 3.2 | x | 0.0 |
| COc1ccc(C(=O)NCC2(c3ccccc3)CCOCC2)cc1[N+](=O)[O-] | 1.0 | x | 3 | -20 | -7% | 0.7 | x | -1.0 |
| O=C(NC(=S)NCCC1=CCCCC1)c1cncc(Br)c1 | -2.0 | 1 | 3 | -38 | 7% | -4.7 | x | -0.2 |
| COc1ccccc1C(CNC(=O)CCNC(=O)c1ccccc1Cl)N1CCCC1 (stereo not drawn) | -3.3 | 0 | -14 | -2 | -3% | 1.4 | -5.7 | 0.0 |
| CC1(C)CC(NC(=O)c2cccc(Cl)c2)CC(C)(C)N1 | 0.4 | x | -29 | 25 | x | 1.5 | 0.3 | 0.9 |
| COc1ccc(CCNC(=O)COC(=O)/C=C/c2ccc(OCC#N)c(OC)c2)cc1 | -0.3 | 7 | -7 | 0 | 2% | 0.2 | -7.8 | 0.4 |
| COc1ccccc1NS(=O)(=O)c1ccc(C)c(NC(=O)C2CCCO2)c1 (stereo not drawn) | x | -4 | x | x | -16% | -0.8 | 1.3 | 0.5 |
